TRPML1 agonist – human mucolipin-1 channel agonism; Q9GZU1; TRPML1-expressing cells, Ca2+ dye fluorescence, FDSS; host cell line not named in the record; reference of the full effect not given here; activation, % (concentration not given with the values); actives 0.12% (n = 410,000); AID 624414; in the data active = activation above about 50%; inconclusive = about 30% to 50%; inactive = below about 30%; also: 0% is about no effect; the text of the record puts the active cut at 80%
Target sequence (Q9GZU1 whole entry, looked up): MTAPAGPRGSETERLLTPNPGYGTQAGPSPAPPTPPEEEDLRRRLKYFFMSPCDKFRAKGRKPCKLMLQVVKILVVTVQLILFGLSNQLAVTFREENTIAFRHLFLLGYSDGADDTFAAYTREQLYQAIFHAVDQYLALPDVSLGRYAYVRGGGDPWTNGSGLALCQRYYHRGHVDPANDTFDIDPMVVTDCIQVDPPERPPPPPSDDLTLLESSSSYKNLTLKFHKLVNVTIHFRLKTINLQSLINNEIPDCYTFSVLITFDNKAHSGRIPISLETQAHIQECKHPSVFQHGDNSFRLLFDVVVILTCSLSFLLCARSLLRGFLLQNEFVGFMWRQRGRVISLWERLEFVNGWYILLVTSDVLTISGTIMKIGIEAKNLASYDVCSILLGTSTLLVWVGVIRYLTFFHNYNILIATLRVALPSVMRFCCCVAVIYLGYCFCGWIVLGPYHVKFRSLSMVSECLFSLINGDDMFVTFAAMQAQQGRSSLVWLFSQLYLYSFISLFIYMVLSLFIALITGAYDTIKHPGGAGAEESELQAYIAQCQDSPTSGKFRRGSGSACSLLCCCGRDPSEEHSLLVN
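In this qHTS format, compounds were pin-transferred onto Ca8-dye-loaded TRPML1-DL cells induced with Tet overnight, and intracellular Ca2+ fluorescence was recorded kinetically for 110 s after a 10 s baseline. A subsequent 4uM final 54-4 (EC80) addition followed by a second 110 s read served as the antagonist phase.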
Six1-Eya2 inh – Six1/Eya2 interaction inhibition | AlphaScreen GST-Six1/His-Eya2 binding, biochemical; hits give low values; control for the full effect not named in the record | activity change, % (no concentration beside the values) | Q15475+O00167 | actives 0.56% (n = 360,000) | AID 651725; in the data active = activity change below about -65%; inconclusive = about -30% to -65%; inactive = above about -30%; also: % is scaled to controls: 0 for no effect and ±100 for the full control effect; compound concentration not given in the record
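AlphaScreen luminescence read after one hour at 37 °C in darkness. Pin-transferred compounds met GST-Six1 and His-Eya2 protein (5X stock 250 nM/500 nM) plus glutathione donor and Ni-chelate acceptor beads (5X, 50 ug/mL).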
TRPML1 blocker – inhibitors of human TRPML1 channel; actives 0.02% (n = 390,000); activity change, negative = inhibition, % (concentration not given with the values); TRPML1-inducible cells, Ca2+ dye fluorescence, FDSS; hits give low values; inhibition of EC80 agonist-evoked calcium signal; in the data active means activity change below about -50%; inconclusive means about -30% to -50%; inactive means above about -30%;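 also: stimulus is agonist 54-4 at its EC80 concentration; % is scaled to controls: 0 for no effect and ±100 for the full control effect; compound concentration not given in the record; the text of the record puts the active cut at -80%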
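TRPML1-DL cells, Tet-induced overnight (~16 h, 37 °C) at 1,500 cells/well, were loaded with Ca8 no-wash dye plus quencher for 45-90 min at room temperature. Compounds were pinned during FDSS kinetic reading; agonist 54-4 at EC80 (4 uM final) then added.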
D2 potentiator – human D2 receptor positive allosteric modulation; DiscoveRx D2 beta-arrestin cells, luminescence, 90 min; 100% = 57 uM dopamine signal; potentiation, % (concentration not given with the values); actives 0.23% (n = 360,000); AID 624464; active = potentiation of 50% or more; inconclusive = 30% to 50%; inactive = 30% or less;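 also: compound concentration not given in the record; tested on top of an EC20 dose of dopamine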
Target sequence (P14416 whole entry, looked up): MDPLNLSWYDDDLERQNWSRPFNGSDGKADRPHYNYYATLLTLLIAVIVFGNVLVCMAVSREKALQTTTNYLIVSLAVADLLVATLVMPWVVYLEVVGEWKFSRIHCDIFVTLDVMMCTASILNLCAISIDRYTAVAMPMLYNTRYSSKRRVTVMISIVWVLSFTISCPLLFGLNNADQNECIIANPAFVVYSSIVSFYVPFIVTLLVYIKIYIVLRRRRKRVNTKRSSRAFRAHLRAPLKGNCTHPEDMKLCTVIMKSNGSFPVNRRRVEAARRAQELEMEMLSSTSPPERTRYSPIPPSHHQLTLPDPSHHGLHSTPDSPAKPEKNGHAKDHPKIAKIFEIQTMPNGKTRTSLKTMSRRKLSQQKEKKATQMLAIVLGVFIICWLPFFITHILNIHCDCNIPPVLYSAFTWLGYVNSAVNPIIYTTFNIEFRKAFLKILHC
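D2 cells co-treated with compound plus 50 nM dopamine (EC20) for 90 min at 37 deg C to detect potentiation. Beta-arrestin recruitment was read as enzyme-fragment luminescence after 1 h at ambient temperature. Full response was set by 57 uM dopamine.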
D2 agonist – activates the human D2 dopamine receptor; P14416; activation, % (test concentration not listed); actives 0.084% (n = 360,000); DiscoveRx PathHunter D2 beta-arrestin, luminescence, 90 min; 100% = 57 uM dopamine signal; in the data active = activation above about 40%; inconclusive = about 15% to 40%; inactive = below about 15%; also: compound concentration not given in the record; the text of the record calls up to 30% inactive
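Agonist mode: compounds alone added to overnight-plated D2 PathHunter cells for 90 min at 37 C, with 57 uM final dopamine (EC100) defining full response. Beta-arrestin recruitment detected by chemiluminescent reagent, read after 1 h at ambient temperature.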
PINK1 expr mod – PINK1 expression modulation. actives 0.2% (n = 410,000). PINK1 immunofluorescence, high-content cytometry, 24 h. Potency, µM (doses to about 76.6 µM), for inactives: at the top dose activation (PINK1 increase), actives largely listed as activators; active = well fitted activation curve with a large enough effect; inconclusive = small, poorly fitted or top-dose-only effect; inactive = flat fitted curve, though single readings scatter; cell line not stated here;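 also: potency is read from the fitted curve at half-maximal effect; % of control where 0% means no effect; nearly all actives have a fitted effect of over 65% in size; a mitochondrial uncoupler was the plate control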
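Decision-based qHTS: stable cells, 24 h exposure to five compound concentrations, CCCP as control. Fixed cells stained for PINK1 plus nuclear, mitochondrial and cell markers, cytometer read.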
Active calls of the source: *; ? = inconclusive; . = not tested or not shown; & = joins results of further samples; [ ] = dose if it differs, or a comment.

SMILES | TRPML1 agonist | Six1-Eya2 inh | TRPML1 blocker | D2 potentiator | D2 agonist | PINK1 expr mod
O=C(CNC(=O)C1CCCCC1)OCC(=O)c1ccc(F)cc1 | -0.4&-0.4 | 4 | 27 | -4 | -2.6 | 0.6%&0.3%
CCc1cccc(NC(=O)c2cc(S(=O)(=O)N3CCCCCC3)cn2C)c1 | 1.0 | . | -8 | . | . | 0.9%
CCOC(=O)c1c(C)[nH]c(C)c1S(=O)(=O)NCC(=O)N(C)c1ccc(C)c(C)c1 | 0.4 | . | 5 | . | . | 2.0%
Cc1ccc(-c2nc(C)sc2CC(=O)OCC(=O)Nc2c(F)cccc2F)cc1 | 1.3 | 5 | 2 | -17 | -0.6 | 1.1%
CCc1nnc2c3ccccc3nc(N3CCN(c4ccc(C)cc4C)CC3)n12 | -0.1 | . | 5 | . | . | 3.5%
COC(=O)c1ccccc1NC(=O)NC1CCCCC1 | -0.1 | 0 | 4 | -21 | -5.2 | 1.3%
Cc1ccc2oc(C(=O)Nc3sc4c(c3C(=O)NCC3CCCO3)CCC4)cc(=O)c2c1 (stereo unspecified) | -0.8 | . | 54 | . | . | 10%
O=C(COC(=O)C12CC3CC(CC(Cl)(C3)C1)C2)Nc1ccc2[nH]c(=O)[nH]c2c1 | 0.4 | 1 | 0 | 5 | 1.5 | 2.5%
O=C(Nc1ccc(CN2CCOCC2)cc1)c1ccco1 | -0.3 | -5 | 11 | -5 | -1.3 | 2.2%
O=C(COC(=O)C1CC2CCCC(C1)C2=O)Nc1ccc(F)c(Cl)c1 (stereo unspecified) | 0.1 | -3 | 9 | -4 | -0.7 | 3.0%
O=[N+]([O-])c1ccc(N/N=C/c2sc(N3CCOCC3)nc2-c2ccccc2)c(S(=O)(=O)Nc2ccccc2Cl)c1 | 13 | -6 | 5 | -11 | -0.1 | ?
COc1cccc(/C=N/NC(=O)c2cccc([N+](=O)[O-])c2)c1OS(=O)(=O)c1ccccc1 | -0.6 | -11 | 32 | 5 | -1.5 | -3.4%
O=C1N(O)C2(C=CCCC2)/C(=N\O)C12CCCCC2 (stereo unspecified) | -1.0 | 1 | 3 | -2 | -2.7 | -0.9%
O=C(Nc1cccc([N+](=O)[O-])c1)c1ccc2c(c1)C(=O)N(c1ccccn1)C2=O | 0.4 | -1 | 4 | -5 | -3.9 | 0.8%
Oc1ccccc1-c1cc(-c2cccc(F)c2)n[nH]1 | 0.0 | 2 | 10 | -9 | 0.6 | 2.4%
Cc1ccc(NC(=O)CSc2nnc3ccccn23)c(Cl)c1 | -0.8 | -1 | 0 | -6 | -1.5 | 1.5%
Nc1nnc(-c2ccc(F)cc2)s1 | 0.3 | -2 | ? | -11 | -2.7 | -2.1%[38.3 µM]
COc1ccc(Cl)cc1C(=O)NC(=S)Nc1cc(-c2nc3ccccc3[nH]2)ccc1C | 0.7 | -9 | -1 | -6 | 1.5 | 1.5%
Nc1[nH]c(C(=O)c2ccccc2)c(-c2ccncc2)c1C(=O)NCCc1c[nH]c2ccccc12 | -0.5 | 1 | . | . | . | 0.5%
Cc1cccc(NC(=O)CSc2nc3c([nH]c4ccccc43)c(=O)n2C)c1 | -0.4&0.4 | 0 | 11&10 | -10 | -6.2 | 13%&0.4%
O=C1c2ccccc2C(c2nnnn2-c2ccc3ccccc3c2)N1C1CC1 (stereo unspecified) | -1.0 | -1 | . | . | . | 0.3%
CN(C)CCCN(C(=O)/C=C/c1cccs1)c1nc2ccc(F)cc2s1 | 0.4 | 0 | 12 | -6 | -5.6 | -1.2%
O=C(C1CCCN(c2ncnc3c2nc2n3CCCCC2)C1)N1CCN(c2ccccc2)CC1 (stereo unspecified) | 1.4 | -2 | 13 | 3 | -2.2 | 4.5%
Cc1ccc2ncc(NC(=O)c3ccc(F)cc3)c(=O)n2c1 | 0.3 | -8 | 3 | 0 | -4.6 | -1.1%
COc1ccc(CN(C)C(=O)c2ccc(Cl)c(S(=O)(=O)NCc3cccnc3)c2)cc1F | -0.6 | 5 | 2 | -2 | 0.2 | 5.8%
Cn1cc(C(=O)NCC2COc3ccccc3O2)c(=O)c2cc(S(=O)(=O)N3CCCCC3)ccc21 (stereo unspecified) | 0.9 | -7 | 6 | 8 | 1.5 | 5.3%[38.3 µM]
C[C@H]1Cn2cnc(C(=O)NCC(=O)OC(C)(C)C)c2C(=O)N1 | -0.7 | -3 | 24 | -1 | -8.2 | 2.1%
CCN(CC)S(=O)(=O)c1ccc(C(=O)Nc2ccc3c(c2)OCCO3)cc1 | 0.6 | -7 | 30 | -4 | -1.3 | 1.8%[38.3 µM]
Cc1ccc(S(=O)(=O)Nc2ncnc3ccccc23)cc1 | -0.3 | -2 | 2 | 3 | -3.7 | -0.5%
Cc1ccc(C(=O)Nc2cc(Cl)ccc2-n2cncn2)s1 | 0.3 | 1 | -23 | 2 | -0.3 | -0.4%
CCN(CC(=O)Nc1cccc(Br)c1)Cc1nc2ccccc2c(=O)[nH]1 | -0.2 | 6 | 8 | -4 | -0.4 | -1.8%
COc1cc([N+](=O)[O-])ccc1NC(=O)Cc1ccccc1 | -0.3 | -4 | -15 | -14 | -2.0 | 1.6%
COc1ccccc1C(=O)Nc1ccc2ccccc2c1 | 1.6 | 5 | 9 | -1 | 6.5 | 2.3%
CSc1sc(C(=O)NCC2CC2)cc1S(=O)(=O)C(C)C | -0.9 | 21 | 21 | -30 | -3.0 | 0.0%
Cc1cccc(-n2ncc3c(NCc4ccccn4)ncnc32)c1 | 2.1 | -6 | -4 | -2 | 0.0 | 7.1%
CCc1ccccc1NC(=O)CN1CCN(C(=O)CNC(=O)Cc2cccc3ccccc23)CC1 | -0.4 | 0 | -12 | 2 | 8.6 | 0.1%
CCOc1ccc(-c2c(C#N)c(N)nc3c2c(=O)n(C)c(=O)n3C)cc1OC | 0.3 | -1 | -2 | -8 | -1.1 | -1.1%
O=c1c2ccccc2c(-c2ccc(F)cc2)nn1-c1ccc(C(F)(F)F)cc1 | 0.3 | 30 | -5 | 0 | -2.9 | 3.6%
C=CCNC(=O)NC(=O)COC(=O)c1cccnc1SC | 0.3 | 9 | -8 | 15 | -0.8 | 2.0%
COc1cc(C(C)=O)ccc1O | 0.1 | 0 | -10 | -6 | -2.4 | 0.5%
CN(C)C(=O)Nc1cnc2ccccc2c1 | 0.4 | -1 | 12 | 1 | -3.6 | -0.3%
CCCN(CC1CCCO1)C(=O)c1cc(COc2cccc(OC)c2)on1 (stereo unspecified) | -0.3 | 3 | -5 | -3 | -3.7 | -1.0%
O=C(COc1ccc(F)cc1Br)N1CCN(S(=O)(=O)/C=C/c2ccccc2)CC1 | 1.7 | -6 | -11 | 1 | 11 | -0.9%
CC1(C)Cc2c(sc(NC(=O)c3ccco3)c2C#N)C(C)(C)N1 | -0.7 | 4 | -3 | -14 | -2.5 | 0.3%
CN(C(=O)CSc1nc(-c2cccs2)nc2ccccc12)C1CCS(=O)(=O)C1 (stereo unspecified) | 0.2 | 1 | 5 | 2 | -2.2 | 2.4%
COc1cc(NS(=O)(=O)c2cc3c(cc2C)N(C)CCO3)cc(OC)c1OC | -0.7 | . | 15 | . | . | -0.2%
CCON1C(=O)C(C)(C)N(OCC)C(=O)C1(C)C | 0.7 | -2 | 36 | -1 | -0.2 | 0.5%
COCCCNC(=O)C1CCN(C(=O)Nc2ccc(Cl)cc2)CC1 | -0.3 | -2 | -11 | -33 | -1.5 | .
CCOC(=O)c1cc2c(=O)n3ccccc3nc2n(C(C)C)c1=NC(=O)c1ccco1 | -1.4 | 0 | -13 | -2 | -5.0 | 1.5%
COc1ccc(N/C=C2\C(=O)c3c(sc(C)c3C)N(C)S2(=O)=O)cc1 | 0.7 | -21 | 1 | -1 | -4.6 | 5.6%
COC(=O)NNC(=S)Nc1cc(OC)ccc1OC | -0.8 | 1 | -9 | -4 | -2.9 | 2.5%[38.3 µM]
CCC(C)NC(=O)C(Cc1ccccc1)NS(=O)(=O)c1ccc2c(c1)oc(=O)n2C (stereo unspecified) | 0.3 | 3 | 8 | -1 | 0.5 | 8.5%
COc1ccc(NC(=O)c2ccccc2Sc2ccc(NC(C)=O)nc2)cc1 | 0.5 | 3 | 4 | 3 | -1.4 | 22%
CC(=O)N(Cc1ccccn1)Cc1ccco1 | -0.2 | 6 | -11 | -4 | -5.7 | 0.3%
CNC(=O)C1CCN(Cc2cc3ccccc3n2Cc2cccc(C)c2)CC1 | 1.8 | . | 5 | . | . | 3.3%
Cc1cc(C)cc(-n2ncc3c2CCCC3NC(=O)c2ccccc2)c1 (stereo unspecified) | 1.3 | -2 | 16 | -24 | -3.5 | -0.2%
CCc1nc2c(oc3ccccc32)c(=O)[nH]1 | -0.9 | -12 | -14 | -4 | -7.8 | 0.7%
Cc1cccc(C(C(C(=O)c2ccccc2)N2CCOCC2)N2CCOCC2)c1 (stereo unspecified) | 0.9 | 5 | -9 | 2 | 0.2 | -2.7%
Cn1ccnc1SCCNC(=O)CCc1nnc(CCc2ccccc2)o1 | -0.1 | 2 | 24 | -4 | -7.0 | -0.1%
O=C(Nc1ccc(N2CCCCC2)cc1)C1CCCN1S(=O)(=O)c1ccc(F)cc1 (stereo unspecified) | -0.8 | -13 | 1 | -3 | -3.5 | 0.3%

New compounds follow
SMILES | TRPML1 agonist | Six1-Eya2 inh | TRPML1 blocker | D2 potentiator | D2 agonist | PINK1 expr mod
Cn1nc(-c2ccccc2)c(C#N)c1Sc1cccc(Cl)c1 | 3.2 | 34 | 27 | -27 | -2.0 | .
Cc1csc(Sc2ccc(C(=O)OCC(=O)Nc3ccc(OC(F)(F)F)cc3)cc2[N+](=O)[O-])n1 | 1.0 | ? | 7 | -1 | -1.8 | 0.2%
CC1(C(=O)Nc2ccc3c(c2)OCO3)Cc2c(-c3cccc(C(N)=O)c3)ccnc2O1 (stereo unspecified) | -1.0 | -3 | . | -6 | -0.2 | 7.3%
Nc1ccc(C(=O)CC(=O)Nc2ccc(Cl)cc2)cc1 | -0.3 | -9 | 0 | -3 | -3.9 | 5.8%

At a glance, some entries already given:
SMILES | TRPML1 agonist | Six1-Eya2 inh | TRPML1 blocker | D2 potentiator | D2 agonist | PINK1 expr mod
Cn1nc(-c2ccccc2)c(C#N)c1Sc1cccc(Cl)c1 | 3.2 | 34 | 27 | -27 | -2.0 | .
Cc1csc(Sc2ccc(C(=O)OCC(=O)Nc3ccc(OC(F)(F)F)cc3)cc2[N+](=O)[O-])n1 | 1.0 | ? | 7 | -1 | -1.8 | 0.2%
CC1(C(=O)Nc2ccc3c(c2)OCO3)Cc2c(-c3cccc(C(N)=O)c3)ccnc2O1 (stereo unspecified) | -1.0 | -3 | . | -6 | -0.2 | 7.3%
Nc1ccc(C(=O)CC(=O)Nc2ccc(Cl)cc2)cc1 | -0.3 | -9 | 0 | -3 | -3.9 | 5.8%

Compound activity (PubChem BioAssay)
